Screening data deposited in PubChem by several laboratories.
RGS16-Gao: RGS16-Galphao interaction regulator (human). O15492+P09471. bead-based flow cytometry RGS16-Galphao binding, fluorescence; actives lie on both sides. binding response (% of control), % at 10 µM. hit rate 0.38% among 220,000. AID 1441;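 active means below 25% or above 175%, edge rows of some plates excepted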;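 further: Galphao activated by GDP with aluminum fluoride before binding; 100% = wells without compound and 0% = beads without RGS; some results beyond the cut were filed as inactive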
Target sequence (O15492 whole entry, looked up): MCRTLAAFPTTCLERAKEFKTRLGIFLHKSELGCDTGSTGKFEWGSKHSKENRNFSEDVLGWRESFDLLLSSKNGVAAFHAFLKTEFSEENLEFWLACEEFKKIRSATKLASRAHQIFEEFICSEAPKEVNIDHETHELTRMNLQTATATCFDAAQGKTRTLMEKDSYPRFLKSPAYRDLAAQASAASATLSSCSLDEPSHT
Target sequence (P09471 whole entry, looked up): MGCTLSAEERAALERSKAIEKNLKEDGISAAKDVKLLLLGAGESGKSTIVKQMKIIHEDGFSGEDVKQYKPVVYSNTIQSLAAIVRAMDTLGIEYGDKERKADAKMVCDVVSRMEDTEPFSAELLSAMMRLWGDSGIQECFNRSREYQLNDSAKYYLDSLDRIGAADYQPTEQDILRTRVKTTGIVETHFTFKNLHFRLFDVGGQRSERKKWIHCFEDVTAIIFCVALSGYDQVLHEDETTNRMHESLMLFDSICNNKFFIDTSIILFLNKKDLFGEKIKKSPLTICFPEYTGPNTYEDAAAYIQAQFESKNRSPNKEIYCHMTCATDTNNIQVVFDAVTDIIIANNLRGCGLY
PKD1 kinase inh: inhibitors of human PKD1 kinase; PKD1 kinase fluorescence polarization assay; inhibition, %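 (about 10 µM by stock and volumes)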; hit rate 0.056% among 200,000;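 active means inhibition of 50% or more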;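 further: controls were vehicle for no effect and a reference inhibitor for full effect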
INS promoter inh: TRM-6 insulin promoter activity inhibition; inhibition, % at 2 µM; hit rate 0.9% among 130,000; TRM-6 cells (human fetal islet line), insulin promoter-eGFP reporter, imaging; reporter expression induced with tamoxifen; AID 1273;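 active means inhibition above the mean plus 3 SD, with well images judged a real hit on visual review, cut at about 60% in these data, passing the limit was not always enough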
HSV replic up: increases HSV replication in cells; HSV replication augmentation in cells, fold increase; maximum fold increase; hit rate 0.005% among 220,000; AID 1956;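 active means peak rise of 1.5-fold or more in the series; tested in PC3 cells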;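 further: first round at 10 µM; read as green reporter fluorescence; hits show the peak of a series up to 25 µM; 1 = signal of infected wells without compound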
GALR2 ag: agonists of human galanin receptor 2 (GALR2) | GALR2-expressing cells, agonist activation read-out | activation, %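 (tested at 5 µM)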 | hit rate 0.48% among 140,000 | O43603;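 active means above mean plus 3 SD of all compounds, about 5% in these data, not always enough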;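 further: 0% = vehicle buffer wells and 100% = reference agonist at full effect; tested in CHO reporter cells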
Target sequence (O43603 whole entry, looked up): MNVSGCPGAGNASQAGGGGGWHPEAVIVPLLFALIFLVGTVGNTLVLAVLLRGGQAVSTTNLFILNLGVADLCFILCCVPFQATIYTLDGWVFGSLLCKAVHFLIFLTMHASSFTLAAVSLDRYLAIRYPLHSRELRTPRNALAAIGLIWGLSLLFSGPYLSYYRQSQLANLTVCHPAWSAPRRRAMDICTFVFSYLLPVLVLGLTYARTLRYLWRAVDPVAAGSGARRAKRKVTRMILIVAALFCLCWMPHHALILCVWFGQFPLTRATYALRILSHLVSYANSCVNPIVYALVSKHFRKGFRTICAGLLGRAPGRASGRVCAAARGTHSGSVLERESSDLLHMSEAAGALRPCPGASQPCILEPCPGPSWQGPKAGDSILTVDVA
INS promoter inh cell count: recorded beside INS promoter inh, whose call it bears; normalized cell count, %; measured here: cell count, toxicity; reference of the scale not given here;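 cells exposed to compound for 48 h; stained nuclei by imaging scaled within each plate; lower means fewer cells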
HSV replic up primary fold: further read-out of HSV replic up, marked with its call; fold increase; compound at 10 µM; measured here: primary screen fold increase 10 uM; tested in PC3 cells;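 GFP signal in the first replicate; 1 = infected wells without compound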
The depositor's hits bear a star; i = inactive; x = not tested or not shown.

SMILES	RGS16-Gao	PKD1 kinase inh	INS promoter inh	INS promoter inh cell count	HSV replic up	HSV replic up primary fold	GALR2 ag
O=C(NCc1ccccc1)C1Cc2ccccc2CN1C(=O)c1ccco1 (configuration not stated)	111	-2	-86	94	i	0.99	x
O=C(c1ccccc1)N1CCN(C(=S)NCc2ccco2)CC1	105	12	25	146	i	0.96	x
C=C1c2cc3c(cc2NC(=S)N1Cc1ccccc1)OCO3	105	x	x	x	i	0.92	x
COC(=O)c1c(NC(=O)CN2C(=O)c3ccccc3C2=O)sc(Cc2ccc3c(c2)OCO3)c1C	x	-23	10	84	i	0.65	-1.3
O=C(N/N=C/c1ccc(O)cc1)/C(=C/c1ccccc1)CCO	104	-9	x	x	i	1.1	-0.1
CCN=C(NCC)SC1CC(=O)N(c2ccccc2)C1=O (configuration not stated)	63	-7	x	x	i	0.88	0.0
Cc1nnsc1C(=O)N/N=C/c1ccccc1	48	2	47	81	i	0.95	-1.4
COc1ccc(-c2cn[nH]c2-c2ccc(OCc3ccc([N+](=O)[O-])cc3)cc2O)cc1	72	-3	x	x	i	0.84	0.9
CCC(=O)Nc1ccccc1C(=O)OCC(=O)c1ccc2ccccc2c1	107	2	27	55	i	0.71	-1.6
FC(F)(F)c1cccc(NC(=S)NNC(=S)NCc2ccccc2)c1	173	-2	-56	42	i	0.94	-1.4
CC12CN3CCN(CC(C3)/C1=N\NC(=O)c1ccccc1N)C2	109	x	x	x	i	1.1	x
COc1ccccc1CNc1ncnc2cc(OC)c(OC)cc12	97	-4	x	x	i	0.87	x
COc1ccccc1-c1cc(C(=O)NC(C)C)no1	98	2	x	x	i	0.91	-0.9
O=C(Nc1ccccc1N1CCOCC1)c1ccccc1[N+](=O)[O-]	81	-7	-17	70	i	1	1.0
CCOc1ccc(NC(=O)c2cc3n(n2)C(C(F)(F)F)CC(c2ccco2)N3)cc1 (configuration not stated)	102	-11	x	x	i	0.92	-1.9
CN1C(=O)/C(=C\C=C2/CCCN2C)N(C)C1=S	99	-1	-33	109	i	1.1	x
COc1ccc(-n2ncc3c(NCc4ccccn4)ncnc32)cc1	97	1	x	x	i	0.87	-1.9
CCCN1CCN(c2ccc(S(N)(=O)=O)cc2[N+](=O)[O-])CC1	104	3	x	x	i	0.87	x
CC(C)(C)c1ccc(OCc2ccc(C(=O)N/N=C/c3ccc([N+](=O)[O-])cc3)o2)cc1	196	1	-16	125	i	0.92	-0.4
CCOC(=O)C1=C(C)Nc2ccccc2N=C1NC(=O)c1cccc(S(=O)(=O)NCc2ccccc2)c1	106	11	-27	179	i	0.64	-0.2
COc1ccc(C(=O)N2CCN(c3nc4ccccc4o3)CC2)cc1OC	97	4	x	x	i	1	-1.3
CCCc1nnc(NC(=O)c2cc(OC)cc(OC)c2)s1	94	1	15	99	i	0.72	-1.2
O=C(Cn1c2ccc(F)cc2c2nc3n(c(=O)c21)CCS3)Nc1ccccc1C(F)(F)F	89	2	-14	63	i	0.94	x
COc1cccc2c(=O)cn[nH]c12	98	-3	25	112	i	0.98	-0.6
COc1ccc(N2CCN(C(=O)c3ccc4c(=O)n(CCc5ccc(OC)c(OC)c5)c(=O)[nH]c4c3)CC2)cc1	92	6	x	x	i	0.8	x
Cc1noc(/C=C/N(C)C)c1S(=O)(=O)N(C)CC(=O)N1CCc2ccccc21	101	3	-75	81	i	0.85	-1.1
O=C(Nc1ccc(N2CCOCC2)c(Cl)c1)c1cccnc1Cl	100	-2	23	108	i	1	-2.9
Nc1nc(Cl)nc2ccc(Br)cc12	108	1	29	146	i	1	-0.5
COc1cc(/C=N/NC2=NCCCCC2)ccc1O	116	x	x	x	i	0.75	x
Cc1cc(C)cc(NC(=O)C(Sc2ncnc3ccccc23)c2ccccc2)c1 (configuration not stated)	40	10	14	116	i	0.93	-3.0
O=C(CSc1nc2cccnc2n1Cc1ccccc1)N1CCCC1	110	4	-54	35	i	0.92	-0.1
CCOC(=O)c1ccc(N2CN=C3SCC(=O)N3C2)cc1	98	-9	x	x	i	0.68	-0.9
O=C1ON=C(c2ccccc2)/C1=C\c1ccco1	90	x	x	x	i	1.1	x
CCOC(=O)c1sc(NC(=O)Nc2cccc(Cl)c2)cc1C	99	-1	x	x	i	0.53	2.0
O=C1CSC(c2cccnc2)N1C1CCCCC1 (configuration not stated)	97	-5	x	x	i	0.92	-0.5
CCNC(=S)Nc1ccc2cn[nH]c2c1	100	3	x	x	i	1	-0.9
CCS(=O)(=O)Nc1ccc(-c2nnc(SCC(=O)c3ccc(NC(C)=O)c(OC)c3)o2)cc1	98	10	x	x	x	x	-2.2
Cc1ncc(CN2CCCC(CCC(=O)NCc3ccccc3F)C2)s1 (configuration not stated)	106	-10	0	162	i	0.84	x
CCn1c(SCC(=O)NCc2ccccc2)nc2ccccc2c1=O	100	3	x	x	i	0.95	-0.4
CN(/C(=N/S(=O)(=O)c1cccs1)c1ccccc1)c1ccc(O)cc1	106	-2	-6	32	i	1	x
Cn1c(=O)c2c(nc(CN3CCCCC3)n2Cc2c(F)cccc2Cl)n(C)c1=O	99	-3	x	x	i	0.92	x
Cc1nc2cc(F)ccc2n1C1CCN(C(=O)c2c(F)cccc2F)CC1	110	-6	18	132	i	0.92	x
CSC1=NC(C)(C)CC2(C)Nc3ccccc3N12 (configuration not stated)	114	20	54	123	i	1.3	-1.0
O=C(Nc1nc2ccccc2s1)NC1CCCCC1	89	3	x	x	i	1	x
CCOC(=O)N1CCC(N(CCN(C)C)C(=S)Nc2cccc(SC)c2)CC1	105	11	6	88	i	0.96	x
CCN(CC)CCNC(=O)CSc1c2c(nc3cc(Cl)ccc13)CCCC2	92	-3	21	83	i	0.62	x
c1ccc(Nc2c(-c3ccco3)nc3ccccn23)cc1	95	-1	-28	171	i	0.9	0.1
CCCOC(=O)c1ccc(Nc2nc(C)cc(=O)[nH]2)cc1	101	-1	0	146	i	0.93	-1.6
NC(=O)c1ccc(CN2CCC(Cc3ccccc3)CC2)cc1	101	-1	x	x	i	1	x
CN(c1ncc(C(F)(F)F)cc1Cl)N1C(=O)c2cccc(N)c2C1=O	107	4	29	111	i	1.3	x
Cc1cc(C(=O)O)c(S(C)(=O)=O)s1	105	-4	-10	104	i	0.99	-0.7
CC(C)(C)c1ccc(OCC(=O)NCc2ccco2)cc1	98	-15	-57	94	i	0.67	-0.8
S=c1[nH]cnc2scc(-c3ccc(Cl)cc3)c12	100	x	x	x	i	0.98	x
O=C(C1=NNCC1c1ccc(Cl)cc1)C1CO1 (configuration not stated)	103	4	-33	114	i	0.84	-1.0
COCCn1c(SCc2nnc(-c3ccc(OC)c(OC)c3)o2)nc2sc3c(c2c1=O)CCC3	x	0	37	160	x	x	-2.1
Cc1ccc(N/C=C(\C2OC(=O)c3ccccc32)[N+](=O)[O-])c(C)c1 (configuration not stated)	102	1	x	x	i	1	x
O=C(CN1C(=O)CCSc2ccccc21)Nc1ccc(F)cc1	99	-13	30	111	i	0.95	-3.5
CC1(C)Cc2nc(N3CCCC3)c(C#N)cc2CO1	111	-7	33	145	i	0.95	x
CCOC(=O)C1=C(CS(=O)(=O)c2ccccc2)NC(=O)NC1c1ccccc1 (configuration not stated)	103	-7	x	x	i	1	-1.0
CC(C)NC(=O)COC(=O)Cn1[nH]c(=O)c2ccccc2c1=O	102	6	x	x	i	0.87	x

7 of the compounds above, with two lines to a compound.
Every second line gives: RGS16-Gao, PKD1 kinase inh, INS promoter inh, INS promoter inh cell count, HSV replic up, HSV replic up primary fold, GALR2 ag
Cc1nc2cc(F)ccc2n1C1CCN(C(=O)c2c(F)cccc2F)CC1
  110, -6, 18, 132, i, 0.92, x
CSC1=NC(C)(C)CC2(C)Nc3ccccc3N12 (configuration not stated)
  114, 20, 54, 123, i, 1.3, -1.0
O=C(Nc1nc2ccccc2s1)NC1CCCCC1
  89, 3, x, x, i, 1, x
CCOC(=O)N1CCC(N(CCN(C)C)C(=S)Nc2cccc(SC)c2)CC1
  105, 11, 6, 88, i, 0.96, x
CCN(CC)CCNC(=O)CSc1c2c(nc3cc(Cl)ccc13)CCCC2
  92, -3, 21, 83, i, 0.62, x
c1ccc(Nc2c(-c3ccco3)nc3ccccn23)cc1
  95, -1, -28, 171, i, 0.9, 0.1
CCCOC(=O)c1ccc(Nc2nc(C)cc(=O)[nH]2)cc1
  101, -1, 0, 146, i, 0.93, -1.6

(further entries)
SMILES	RGS16-Gao	PKD1 kinase inh	INS promoter inh	INS promoter inh cell count	HSV replic up	HSV replic up primary fold	GALR2 ag
COc1ccc(C)cc1NC(=O)CNc1ccccc1CN(C)C1CCCCC1	99	1	-21	89	x	x	x
CC(C)Nc1nnc(SCC(=O)NCc2ccc3c(c2)OCO3)s1	100	2	-67	109	i	0.95	x
COc1ccc(-n2nc3c(c2NC(=O)c2ccc(N4C(=O)CCC4=O)cc2)CSC3)cc1	104	2	6	73	i	0.91	x
Clc1ccc(-c2cc3ccccc3nc2N2CCOCC2)cc1	88	-2	-55	75	i	0.93	x
Cn1c(SCC(=O)O)nnc1-c1ccc2ncccc2c1	95	x	x	x	i	0.9	x
CC(C)(C)OC(=O)N1CCCC1C(=O)NCCc1ccccc1 (configuration not stated)	98	2	-9	45	i	0.97	-2.0
CC(C)c1ccc(/C=C/C(=O)NC2CCCCC2)cc1	106	-13	-63	84	i	0.8	0.4
COc1cc(/C=C(\C#N)C(=O)Nc2cccc3ncccc23)ccc1O	100	-1	x	x	i	1	x
N/C(=N\c1nc2c(c(=O)[nH]1)CCCC2)Nc1ccc(Oc2ccccc2)cc1	94	-6	-119	106	i	0.84	-0.6
O=[N+]([O-])c1cc(C(F)(F)F)ccc1N1CCCNCC1	102	2	x	x	i	0.98	x
CCN1CCN(c2c(Cl)cccc2NC(=O)c2ccc3nsnc3c2)CC1	91	x	x	x	i	1	x
CC(C)CCN1CCN(Cc2ccc(C(F)(F)F)cc2)CC1CCO (configuration not stated)	86	4	-33	80	i	0.97	x
S=c1[nH]c(-c2ccccc2)cs1	91	-5	x	x	i	1.1	x
CN(C)S(=O)(=O)c1ccc(C(=O)OCC(=O)Nc2ccccc2OC(F)F)cc1	100	-10	-18	153	i	0.93	-1.0
COc1ccccc1Oc1ccc2c(c1)C(=O)N(c1ccc(Br)c3cccnc13)C2=O	156	10	-69	100	i	0.89	-0.4
O=C(CSc1nc(Nc2ccccc2)nc(N2CCOCC2)n1)Nc1ccc2c(c1)OCCO2	99	-8	25	116	i	0.93	0.2
CC(C)Cn1c(C(C)C)nc([N+](=O)[O-])c1Sc1ccc(Cl)cn1	98	-18	x	x	i	0.9	-3.2
CCn1c(=O)n(CC)c2cc(S(=O)(=O)Nc3ccccc3C)c(C)cc21	102	-7	35	101	i	0.85	-1.9
Cc1cccc(NC(=O)/C(C#N)=C\c2cn(CC(=O)O)c3ccccc23)c1	98	-5	0	87	i	0.89	x
Cc1ccccc1C(=O)Nc1cccc(-c2ccc3nncn3n2)c1	103	-9	38	98	x	x	x
CCOc1ccc(-n2c(SC(C)C)nc3c(c2=O)SCC3)cc1	98	-8	x	x	i	1.1	-0.2
COc1cc(C(C)=O)ccc1Oc1ncnc2c1cnn2-c1ccccc1	113	8	12	104	i	0.96	-1.2
C[C@@H](C[C@@H](O)[C@H](O)C(C)(C)O)[C@@H]1CC[C@]2(C)C3=CC[C@H]4C(C)(C)C(=O)CC[C@]4(C)[C@H]3CC[C@@]12C	99	-6	5	105	i	1	1.3
Nc1c(C(=O)N2CCCC2)sc2nc(-c3ccccc3)ccc12	97	x	x	x	i	0.95	x
CN(C)c1ccc(CNC(=O)c2ccc(CNc3c(N4CCCCC4)c(=O)c3=O)cc2)cc1	94	-3	x	x	i	0.86	-2.0
O=C(CSc1ccc(-c2nc3ccccc3[nH]2)cn1)N1CCN(C(=O)c2ccco2)CC1	104	-10	x	x	i	0.96	-1.6
COc1ccc(C(=O)Oc2c(CN3CCOCC3)cc(Cl)c3cccnc23)cc1OC	x	-17	x	x	i	1.2	-2.0
Cc1cnc(NC(=O)c2nn(C)cc2[N+](=O)[O-])s1	103	3	x	x	i	0.62	x
Cc1ccc(N2C(=O)C3NN=C(C(=O)OCc4ccccc4)C3C2=O)c(C)c1 (configuration not stated)	104	6	20	130	i	0.93	-0.9
O=C(O)c1ccc(CN2C(=O)CSC2=S)cc1	104	3	x	x	i	0.99	-1.5
CCOC(=O)C1=C(C)NC(=O)NC1c1ccc2c(c1)OCCO2 (configuration not stated)	95	-3	x	x	i	1	-1.4
